# Bioassay records deposited in PubChem BioAssay by National Center for Advancing Translational Sciences (NCATS).
# Vaccinia mCherry: inhibitors of vaccinia virus infection (mCherry reporter signal) | Vaccinia virus mCherry reporter infection, fluorescence; about a quarter of the inactives have no number | Potency, µM (series often up to 36.5 µM), for inactives: at the top dose activity change, negative = inhibition, hits mostly inhibitors | 0.63% of 310,000 active | AID 720579; active = well fitted inhibition curve with a large enough effect; inconclusive = small, poorly fitted or top-dose-only effect; inactive = no such curve, though single readings can be large or run the other way; tested in A549 cells; further: nearly all actives have a fitted effect of over 35% in size; inactives centre near -10
# VACV Venus inh: inhibitors of vaccinia virus (Venus reporter). Potency, µM (series often up to 36.5 µM), without a hit: at the top dose activity change, negative = inhibition, actives largely listed as inhibitors. 0.46% of 330,000 active. Vaccinia virus Venus reporter expression, fluorescence; active means well fitted inhibition curve with a large enough effect; inconclusive means small, poorly fitted or top-dose-only effect; inactive means no such curve, though single readings can be large or run the other way; tested in A549 cells; further: nearly all actives have a fitted effect of over 30% in size; inactives centre near -10
# Active calls of the source: *; i = inactive; ? = inconclusive; / = not tested or not shown. On the % scale 0 is the no-effect control and ±100 the full control effect; potency means the concentration at half of the fitted maximal effect.
# Value order: Vaccinia mCherry, VACV Venus inh
COc1ccc(NC(=O)Cn2c(=O)n(-c3ccccc3)c(=O)c3oc4ccccc4c32)c(OC)c1
  -10%, 6%
COC(=O)C1=NN(C(=O)c2cccc(Cl)c2)C(O)(C(C)(C)C)C1 (stereo not given)
  i, -10%
CCOC(=O)CSc1nnc(NCC(=O)OC(C)C)c(=O)[nH]1
  -1%, -4%
C=CCn1c(N2CCCC2)nc2c1c(=O)n(C)c(=O)n2C
  -16%, -8%
O=C(COc1ccc(-c2nnco2)cc1)Nc1cc([N+](=O)[O-])ccc1F
  i, -5%
Cc1ccc(Nc2nnc(-c3ccc(N4CCOCC4)c([N+](=O)[O-])c3)c3ccccc23)cc1
  -1%, -9%
Cc1nc2sc(C(N)=O)c(N)c2c(C)c1CC(=O)c1ccccc1
  -5%, -16%
CC(C)(C)OC(=O)N1CCC(c2c(C(=O)NC3CC3)cnn2-c2ccc(Cl)cc2)CC1
  -4%, -19%
COc1ccccc1Cc1c(-c2ccco2)nc2cc(C)c(Br)c(C)n12
  29%, -2%
O=C(C1CCCN(C2CC(=O)N(c3ccc(F)cc3)C2=O)C1)N1CCCC1 (stereo not given)
  -6%, -4%
CCCC(=O)N/C(N)=N/c1nc2ccccc2o1
  -15%, -11%
COC(=O)c1ccc(NC(CC(C)C)C(=O)OC)c([N+](=O)[O-])c1 (stereo not given)
  i, -3%
CC(C)=CCc1c(O)ccc2c1OC(c1ccc(O)c(O)c1)CC2=O (stereo not given)
  -24%, -2%
CC(=O)NCCc1ccc(C(=O)Cn2cnc3ccccc3c2=O)cc1
  ?, -1%
Cc1cccc(Cn2cccc(C(=O)Nc3ccc(F)cc3F)c2=O)c1
  ?, -23%
O=C(CCNC(=O)c1ccc([N+](=O)[O-])cc1)Nc1ccccc1N1CCCCC1
  -7%, 0%
O=C(COc1ccccc1F)Nc1ccc2nc(SCC(=O)N3CCOCC3)sc2c1
  -23%, -20%
Cc1cc(C)c(NC(=O)CCC(=O)N2Cc3ccccc3Oc3ncccc32)c(C)c1
  -12%, -7%
FC(F)(F)c1cccc(Cn2nnnc2-c2cc(Cl)cc(Cl)c2)c1
  -3%, -18%
CN1CCN(S(=O)(=O)c2ccc(Oc3ccc(F)cc3Br)nc2)CC1
  -16%, -17%
COc1ccc(C(C)=O)cc1CN1C(=O)NC(c2ccccc2)(c2ccccc2)C1=O
  -12%, 3%
O=C(Nc1cc(S(=O)(=O)N2CCOCC2)ccc1Cl)C1CCC1
  -27%, -15%
C=CCn1c(O)c(/C=N/NC(=O)c2ccncc2)c(=O)[nH]c1=O
  -11%, -11%
Cc1ccsc1-c1cc2nc(Nc3ccc(F)cc3)n(C)c(=O)c2s1
  i, -9%
C=CCNc1nc(C(=O)OCC(=O)c2cccc(Br)c2)cs1
  i, 0%
Cc1cccc(CNC(=O)c2cnn(-c3nccc(-c4cccs4)n3)c2C2CC2)n1
  -11%, -4%
Cc1cc(N2C(=O)C(O)=C(C(=O)c3cc4ccccc4o3)C2c2cccs2)no1 (stereo not given)
  -4%, -15%
CC(C)OCCCNC(=O)c1ccc2c(=O)n(CCc3ccccc3)c(=O)[nH]c2c1
  -1%, -6%
COc1ccc(CCNC(=O)C(=O)c2cn(CC(=O)N3CCOCC3)c3ccccc23)cc1
  -10%, -8%
O=C(Nc1cc(S(=O)(=O)N2CCOCC2)ccc1N1CCCC1)c1cccnc1Cl
  -14%, 0%
COC(=O)c1cc2oc3ccccc3c2n1Cc1nc(-c2ccc(Cl)cc2)oc1C
  -18%, 3%
CC(C)C(NC(=O)c1ccc(C(C)(C)C)cc1)C(=O)OCC(=O)NC(=O)Cc1ccccc1 (stereo not given)
  -14%, -3%
COc1ccc(-c2ccc3c(c2)O/C(=C\c2ccsc2)C3=O)cn1
  ?, ?
Cc1c(C)c2cc(Cl)c(OCC(=O)N3C[C@H]4C[C@@H](C3)c3cccc(=O)n3C4)cc2oc1=O
  -1%, -1%
COc1ccc(C2Nc3ccccc3C(=O)N2Cc2ccccc2)cc1COc1ccc([N+](=O)[O-])cc1 (stereo not given)
  28%, 7%
Cc1nn(Cc2ccccc2)c2sc(C(=O)NCc3cccnc3)cc12
  ?, -23%
CCc1ccccc1NC(=O)N1CCC2(CC1)Oc1ccccc1C(=O)N2Cc1ccccc1F
  -8%, -8%
O=C(O)C1C2C=CC(C2)C1C(=O)NCc1ccccc1F (stereo not given)
  -3%, -5%
COc1ccc(S(=O)(=O)N(CC(=O)Nc2ccc3c(c2)OCO3)c2ccccc2OC)cc1
  /, -11%
C[C@@H]1Cn2cnc(C(=O)NCC(=O)OC(C)(C)C)c2C(=O)N1
  -27%, -3%
COCc1nnc(NC(=O)c2cccc(NC(=O)C(C)C)c2)s1
  -19%, 3%
COC(=O)c1ccccc1NC(=O)c1ccc(-c2nc(COc3ccccc3)c(C)o2)cc1
  -6%, 5%
CC(=O)Nc1ccc(NC(=O)CSc2nnc(-c3cccs3)n2N)cc1
  -18%, -17%
Cc1cccc(C)c1NC(=O)CSc1nnc(-c2ccco2)c(-c2ccco2)n1
  i, -10%
Cc1onc(-c2c(Cl)cccc2Cl)c1C(=O)NCc1ccccn1
  i, -11%
O=C(CN1C(=O)NC2(CCCc3ccccc32)C1=O)NC1CCCCC1 (stereo not given)
  -7%, -25%
Cc1ccccc1CNC(=O)c1ccc2[nH]c(C)c(C)c2c1
  -7%, -8%
CCS(=O)(=O)N1CCCC(C(=O)NCCCOC)C1 (stereo not given)
  /, -3%
CCOc1cc(-c2c(C#N)c(=O)[nH]c3c2c(C)nn3-c2ccc(F)cc2)ccc1O
  -20%, -18%
CCC(=O)c1ccc(OCC(=O)Nc2ccccc2C(=O)NC2CC2)cc1
  -14%, -7%

# Complete entries, quoted from the list.
# Listed for O=C(CN1C(=O)NC2(CCCc3ccccc32)C1=O)NC1CCCCC1 (stereo not given) : Vaccinia mCherry = -7%; VACV Venus inh = -25%
# Listed for CC(=O)Nc1ccc(NC(=O)CSc2nnc(-c3cccs3)n2N)cc1 : Vaccinia mCherry = -18%; VACV Venus inh = -17%

# (cont.)
# Value order: Vaccinia mCherry, VACV Venus inh
Cc1cc(C)c(NC(=O)c2cc(=O)c3ccccc3o2)c(C)c1
  i, -20%
C/C(CC(=O)Nc1ccc2c(c1)OCCO2)=N\NC(=O)COc1ccccc1
  -15%, -4%
Nc1nnc(N2CCCCCC2)s1
  -13%, -9%
COc1cccc(NC(=O)NCCCSC2CCCCC2)c1
  -1%, -15%
CCC(Oc1ccccc1)C(=O)OCC(=O)Nc1c(C)nn(-c2ccccc2)c1C (stereo not given)
  i, -11%
COc1ccc(NC(=O)CSc2nnc(Cc3ccccc3)c(=O)n2N)cc1
  -12%, -3%
COc1ccccc1NS(=O)(=O)c1cccc(NC(=O)Cc2cccs2)c1
  -26%, -15%
C[C@H](CO)N1C[C@H](C)[C@H](CN(C)S(=O)(=O)c2ccc(-n3cccn3)cc2)OCc2cnnn2CCCC1=O
  -19%, 11%
CCCCc1ccc(NC(=S)NCc2cccnc2)cc1
  i, -12%
CCC(=O)c1ccc(N2CCCC2)c(F)c1
  -8%, -4%
O=C(CNCc1cccs1)Nc1ccc(N2CCCCCC2)cc1
  -27%, -13%
CCCN1C[C@H](C)N([C@H](c2ccc(C(=O)N(CC)CC)cc2)c2cccc(OC)c2)C[C@H]1C
  -7%, -17%
COc1cc(NC(=O)N[C@@H](Cc2ccccc2)C(=O)O)cc(OC)c1
  i, -10%
CCCCNC(=O)C1(C)CCN1C(=O)c1oc2ccccc2c1C (stereo not given)
  4%, -9%
CC(=O)N1CCN(CC(=O)Nc2c(Cl)ccc(C)c2Cl)CC1
  -3%, -12%
CC(=O)NN1C(=O)/C(=C2/Sc3ccccc3N2C)SC1=S
  i, -5%
O=C(Nc1ccc(N2CCCC2)c(Cl)c1)c1ccc2c(c1)OCCO2
  -19%, -8%
Cc1cc(=O)n2nc(N3CCCC(C(=O)N4CCc5ccccc54)C3)sc2n1 (stereo not given)
  /, ?
CC(C)NS(=O)(=O)c1ccc(NC(=O)C(C)Oc2ccc(C(=O)c3ccccc3)cc2)cc1 (stereo not given)
  ?, ?
O=C1CC(N2CCN(c3ccc(F)cc3)CC2)C(=O)N1c1ccccc1 (stereo not given)
  -4%, 4%
Cc1cc(C)n2nc(C(=O)NCC(=O)Nc3ccc(F)c(F)c3)nc2n1
  -17%, -11%
COc1ccc(NC(=O)CCOc2ccc(C)cc2)c(OC)c1
  i, -2%
COc1ccc(COc2cc(-c3cccc(OC)c3)nc3ccc(NC(=O)c4ccc(C)cc4)cc23)cc1
  i, -13%
Cc1nc2ccccn2c1CN(C)C(=O)C1CCC(=O)N(CCc2cccc(F)c2)C1 (stereo not given)
  -9%, -8%
CC1CCCCN1C(=O)COC(=O)CNC(=O)c1ccc(Cl)cc1Cl (stereo not given)
  i, -18%
Cc1nc2ccccc2nc1C
  13%, -7%
CCOc1ccccc1CNC(=O)c1cnc2sc(N(CC)CC)nn2c1=O
  i, -21%
CCCCCCn1cc(CN2CC(N(C)C)CS2(=O)=O)nn1 (stereo not given)
  18%, 13%
Cc1cc(NS(=O)(=O)c2ccc(NC(=O)c3cccc(OC(F)F)c3)cc2)nc(C)n1
  -10%, -16%
COC(=O)c1nc2n(n1)C(c1ccccc1OC)C1=C(CCCC1=O)N2 (stereo not given)
  /, 0%

# Three compounds out of the list, sorted by length of the SMILES, smallest number first:
# Value order: Vaccinia mCherry, VACV Venus inh
CCOc1ccccc1CNC(=O)c1cnc2sc(N(CC)CC)nn2c1=O
  i, -21%
COC(=O)c1nc2n(n1)C(c1ccccc1OC)C1=C(CCCC1=O)N2 (stereo not given)
  /, 0%
COc1ccc(COc2cc(-c3cccc(OC)c3)nc3ccc(NC(=O)c4ccc(C)cc4)cc23)cc1
  i, -13%

# Remaining list, next part:
# Value order: Vaccinia mCherry, VACV Venus inh
CN(CC(=O)Oc1ccc(-c2nnco2)cc1)S(=O)(=O)c1ccc(F)cc1
  i, -7%
Cc1ccc2c(c1)C1CN(C)CCC1N2C(=O)c1ccccc1NS(=O)(=O)c1cccc(C(F)(F)F)c1 (stereo not given)
  -3%, -27%
O=C(Cc1ccccc1F)NC1CCCc2ccccc21 (stereo not given)
  i, -3%
O=C(CSc1nnnn1-c1ccccc1)NC(=O)NCc1ccco1
  /, -26%
CC(C)C(NS(=O)(=O)c1ccccc1)C(=O)N1CCCC1 (stereo not given)
  -13%, -9%
CCCCNC(=O)N(O)C1N(/N=C/c2ccccc2F)C(=S)SC1(C)C (stereo not given)
  -2%, -9%
CCCc1nc2ccc(Cl)cn2c1Cc1ccccc1
  0%, -12%
CC1CN(C(=O)COC(=O)c2cccc(S(=O)(=O)N3CCc4ccccc43)c2)CC(C)O1 (stereo not given)
  i, -1%
CCOc1ccc(C(=O)O/N=C(\N)c2ccc([N+](=O)[O-])cc2)cc1OCC
  -7%, -6%
O=C(/C=C/c1ccc(Cl)cc1)NCc1ccco1
  ?, ?
COc1ccc(CNC(=O)CSC(=S)N2CCCC2)cc1
  i, -10%
COCc1ccc(C(=O)N(C)CC2CCCN(CCc3ccc(Cl)cc3)C2)o1 (stereo not given)
  -7%, -18%
O=C(OCCc1cc2ccccc2c(=O)o1)c1cccs1
  i, -2%
COc1cccc(/C=N/NC(=O)C(=O)N2CCCC2)c1O
  i, -9%
COc1ccc(OC)c(C(=O)NC(CC(N)=O)c2ccc(NCC3CC3)c([N+](=O)[O-])c2)c1 (stereo not given)
  i, -5%
CSC1=NCCN1C(=O)c1c(F)cccc1F
  -18%, -16%
CC(=O)N1N=C(c2ccccc2)CC1c1ccccc1 (stereo not given)
  -13%, -10%
COc1ccc(-c2csc(N3C(=N)SCC3=O)n2)cc1
  -9%, -4%
COc1cc(OC)cc(-c2c(-c3ccc(F)cc3)c3cc(-c4ccc5c(c4)OCCO5)ccc3n2C)c1
  i, -10%
Cc1ccccc1S(=O)(=O)Cc1ccc(C(=O)NCCN(C)Cc2ccccc2)o1
  -25%, -18%
N/C(=N\c1nc2ccccc2o1)NC(=O)/C=C/c1ccccc1
  -24%, 5%
CCC(C)(C)n1nnnc1C(c1ccncc1)N1CCC(C)CC1 (stereo not given)
  /, -18%
Cc1cccc(N2Cc3ccccc3C2=NC(=O)c2ccc(Cl)nc2)c1
  -7%, -4%
O=C(COC(=O)c1ccccc1O)Nc1cccnc1Cl
  -7%, -25%
C/C(=C\C(=O)c1ccccc1)NNC(=O)c1ccc(Cl)cc1
  i, 17%
COc1cc(OC)cc(C(=O)N2CCN=C2SCc2cccnc2)c1
  -1%, -9%
O=C(NCCCN1CCCC1=O)C1CCN(S(=O)(=O)c2c(Cl)cccc2Cl)CC1
  -14%, -17%
CCCCC1CCC(C(=O)N(CC(C)C)c2c(N)n(CCCC)c(=O)[nH]c2=O)CC1 (stereo not given)
  -12%, -6%
O=C(NC1CCCC1)c1ccc2c(c1)N(Cc1ccccc1)C(=O)c1ccccc1S2
  -15%, -6%
COc1cccc(OC)c1C(=O)NC(=S)N1C[C@H]2C[C@H](C1)c1cccc(=O)n1C2
  15%, 6%
Cc1ccc(CCN2CC(C(=O)NCCC(C)C)CC2=O)cc1 (stereo not given)
  -9%, -5%
COc1ccccc1-c1cc(NC=O)c2ncc(-c3cccc(C(C)=O)c3)n2c1
  7.9µM*, ?
